D2 PAM = positive allosteric modulators of human D2 dopamine receptor; P14416; DiscoveRx D2 beta-arrestin cells, luminescence, 90 min; 100% = 57 uM dopamine signal; potentiation, % (concentration not given with the values); actives 0.23% (n = 360,000); active = potentiation of 50% or more; inconclusive = 30% to 50%; inactive = 30% or less;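 further: compound concentration not given in the record; tested on top of an EC20 dose of dopamine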
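PathHunter beta-arrestin assay in DiscoveRx D2 cells. Compounds were added with an EC20 of dopamine (50 nM final) for 90 min at 37 deg C. Luminescence was read 1 h after detection reagent, with 57 uM dopamine as the EC100 control.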
CtBP-E1A blk = blocks the CtBP interaction with E1A; AlphaScreen GST-E1A/His-CtBP binding, 1536-well; active compounds read low; control for the full effect not named in the record; activity change, % (concentration not given with the values); actives 0.49% (n = 340,000); AID 651724; in the data active means activity change below about -65%; inconclusive means about -30% to -65%; inactive means above about -30%; further: on the % scale 0 is the no-effect control and ±100 the full control effect
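Steps: dispense buffer (Tris pH 8.0, NaCl 300 mM, TCEP 1 mM, BSA, Tween 20); add 5X protein mix (GST-E1A, His-CtBP, 125 nM each); pin 23 nL compound; 2 h at 37 °C, dark; add 5X beads (50 ug/mL); 1 h; read.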
D2 agonist = agonists of human D2 dopamine receptor (beta-arrestin) | DiscoveRx PathHunter D2 beta-arrestin, luminescence, 90 min; 100% = 57 uM dopamine signal | actives 0.084% (n = 360,000) | activation, % (no concentration beside the values); in the data active = activation above about 40%; inconclusive = about 15% to 40%; inactive = below about 15%; further: compound concentration not given in the record; the text of the record calls up to 30% inactive
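DiscoveRx PathHunter D2 beta-arrestin cells (2,100/well) attached overnight, then compound-stimulated 90 min at 37 C in HBSS/10 mM HEPES/0.1% Tween-20 buffer; beta-galactosidase complementation read by luminescence after 1 h at ambient temperature. Dopamine 57 uM final (EC100) as control.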
gsp ag = agonists of gsp mutant (McCune-Albright syndrome) | actives 0.13% (n = 340,000) | Potency, µM (doses to about 76.9 µM), without a hit: at the top dose activation (cAMP increase), most hits filed as activators | gsp mutant cells, cAMP HTRF, 30 min; control for the full effect not named in the record; active = well fitted activation curve with a large enough effect; inconclusive = small, poorly fitted or top-dose-only effect, or another doubt; inactive = no such curve, though single readings can be large or run the other way; cell line not stated here;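 further: phosphodiesterase inhibitor Ro 20-1724 added with compounds to block cAMP breakdown; potency means the concentration at half of the fitted maximal effect; nearly all actives have a fitted effect of over 60% in size; about a fifth of the inactives were tested at one dose only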
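Cells in DMEM/10% FBS with G418 were pretreated with compounds in DMSO plus […] (300 uM stock) for 30 min at 37C. cAMP was measured by HTRF (cAMP-d2 plus anti-cAMP antibody-K) after 30 min at room temperature.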
Six1-Eya2 blk = inhibitors of human Six1/Eya2 interaction; Q15475+O00167; AlphaScreen GST-Six1/His-Eya2 binding, biochemical; active compounds read low; control for the full effect not named in the record; activity change, % (concentration not given with the values); actives 0.56% (n = 360,000); in the data active = activity change below about -65%; inconclusive = about -30% to -65%; inactive = above about -30%; further: on the % scale 0 is the no-effect control and ±100 the full control effect
Target sequence (O00167 whole entry, looked up): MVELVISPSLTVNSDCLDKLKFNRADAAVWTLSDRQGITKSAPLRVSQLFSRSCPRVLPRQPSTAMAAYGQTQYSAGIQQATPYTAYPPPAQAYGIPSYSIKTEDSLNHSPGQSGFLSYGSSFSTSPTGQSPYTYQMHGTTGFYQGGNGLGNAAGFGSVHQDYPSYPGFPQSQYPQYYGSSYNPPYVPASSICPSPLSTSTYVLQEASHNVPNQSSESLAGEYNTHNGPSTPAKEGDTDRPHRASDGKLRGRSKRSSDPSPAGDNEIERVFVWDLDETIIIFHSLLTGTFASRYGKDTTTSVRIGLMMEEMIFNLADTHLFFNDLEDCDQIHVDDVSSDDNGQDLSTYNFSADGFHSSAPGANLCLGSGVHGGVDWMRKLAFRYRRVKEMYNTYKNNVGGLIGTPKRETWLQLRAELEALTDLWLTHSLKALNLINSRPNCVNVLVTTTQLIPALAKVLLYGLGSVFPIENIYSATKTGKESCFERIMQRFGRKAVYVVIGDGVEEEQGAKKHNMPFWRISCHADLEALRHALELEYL
Target sequence (Q15475 whole entry, looked up): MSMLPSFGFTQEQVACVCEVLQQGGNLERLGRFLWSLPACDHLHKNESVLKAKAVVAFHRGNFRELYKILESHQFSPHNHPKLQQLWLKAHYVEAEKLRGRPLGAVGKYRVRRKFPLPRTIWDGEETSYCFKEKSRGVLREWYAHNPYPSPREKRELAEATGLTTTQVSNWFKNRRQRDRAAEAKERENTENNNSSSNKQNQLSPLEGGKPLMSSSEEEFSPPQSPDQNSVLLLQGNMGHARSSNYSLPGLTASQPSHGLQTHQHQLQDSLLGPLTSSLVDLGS
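AlphaScreen with GST-Six1 and His-Eya2 (5X mix: 250 nM and 500 nM), glutathione donor and nickel acceptor beads; buffer 50 mM Tris pH 8.0, 300 mM NaCl, 1 mM TCEP; 1 h at 37 C in the dark.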
gsp antag = antagonists of gsp mutant (McCune-Albright syndrome) | gsp-mutant cells, cAMP HTRF, 30 min; control for the full effect not named in the record | Potency, µM (highest dose often 76.9 µM), without a hit: at the highest dose activity change, negative = inhibition, hits mostly inhibitors | actives 0.4% (n = 340,000) | AID 624288; active = falling curve of any shape with a large fitted effect; inconclusive = falling curve, mostly with a smaller effect; inactive = flat or rising curve; cell line not stated here;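 further: intracellular cAMP measured with PDE inhibitor Ro 20-1724 present during compound exposure; potency means the concentration at half of the fitted maximal effect; on the % scale 0 is the no-effect control and ±100 the full control effect; nearly all actives have a fitted effect of over 65% in size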
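G418-selected cells were plated in DMEM/10% FBS for 16-24 h at 37C, then treated with compounds plus the PDE inhibitor […] (300 uM solution added) for 30 min at 37C. Intracellular cAMP was measured by HTRF after 30 min lysis at room temperature.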
Active calls of the source: *; [ ] = another dose, or the depositor's remark.

What do the screens show for `COc1cc(OC)cc(C(=O)Nc2cccc(N3CCCC3)c2)c1`?
D2 PAM: -15; CtBP-E1A blk: 48; D2 agonist: -1.3; gsp ag: 0%; Six1-Eya2 blk: -25; gsp antag: -10%

Results for CC(C)(C)C(=O)Nc1nnc(SCC(=O)NCc2cccs2)s1 ?
D2 PAM: -10; CtBP-E1A blk: 12; D2 agonist: 0.4; gsp ag: -61%[inhibitor]; Six1-Eya2 blk: -1; gsp antag: 3%

How did Cc1nc2ccc(NC(=O)c3cccs3)cc2s1 do in these assays?
D2 PAM: -6; CtBP-E1A blk: 1; D2 agonist: -0.9; gsp ag: -1%; Six1-Eya2 blk: -6; gsp antag: 0%

How did Cc1ccsc1-c1nc(CN(C)C(C2CC2)C2CC2)c(C)o1 do in these assays?
D2 PAM: -18; CtBP-E1A blk: -17; D2 agonist: 1.0; gsp ag: -12%; Six1-Eya2 blk: -8; gsp antag: 3%

Results for O=C(Nc1cc2c(cc1Br)OCCO2)c1cccs1 ?
D2 PAM: 20; CtBP-E1A blk: 2; D2 agonist: -2.4; gsp ag: -1%; Six1-Eya2 blk: 2; gsp antag: -21%

Results for O=C(O)CSCC(=O)NCc1csc2ccc(Cl)cc12 ?
D2 PAM: -2; CtBP-E1A blk: 7; D2 agonist: -2.4; gsp ag: 5%[15.4 µM]; Six1-Eya2 blk: 9; gsp antag: 16%

What do the screens show for `Cc1cc(Cl)ccc1OCC(=O)NCCCCc1ccccc1`?
D2 PAM: -9; CtBP-E1A blk: 27; D2 agonist: -4.9; gsp ag: -31%[inhibitor]; Six1-Eya2 blk: 26; gsp antag: -5%

What do the screens show for `CCCCOc1[nH]c2nc(-c3ccco3)n(Cc3ccco3)c(=N)c2c1C#N`?
D2 PAM: 3; CtBP-E1A blk: -14; D2 agonist: 1.0; gsp ag: -19%; Six1-Eya2 blk: -19; gsp antag: -11%

How did O=c1cccccc1NN=C1CCCCCC1 do in these assays?
D2 PAM: -1; CtBP-E1A blk: 20; D2 agonist: -2.3; gsp ag: 13%[15.4 µM]; Six1-Eya2 blk: 9; gsp antag: 13%

What do the screens show for `COc1ccc(CNC(=O)CCNS(=O)(=O)c2cc(Br)cnc2N)cc1`?
D2 PAM: -5; CtBP-E1A blk: -2; D2 agonist: -2.5; gsp ag: -14%; Six1-Eya2 blk: 1; gsp antag: 3%

Results for Nc1cc(N)nc(SCC(=O)NCCC2=CCCCC2)n1 ?
D2 PAM: 0; CtBP-E1A blk: -3; D2 agonist: -6.7; gsp ag: 10%; Six1-Eya2 blk: 0; gsp antag: 3%

What do the screens show for `Cc1[nH]n(-c2ccccc2)c(=O)c1C(c1ccc(C(=O)O)cc1)c1c(C)[nH]n(-c2ccccc2)c1=O`?
D2 PAM: -29; CtBP-E1A blk: -1; D2 agonist: -7.0; gsp ag: inconclusive; Six1-Eya2 blk: -13; gsp antag: 3%

Results for Cc1c(C)[n+](=O)c(-c2ccco2)c(C)n1[O-] ?
D2 PAM: -12; CtBP-E1A blk: 1; D2 agonist: -1.2; gsp ag: 1%; Six1-Eya2 blk: 0; gsp antag: 6%

How did Cc1ccc(C(=O)Nc2ccc(S(=O)(=O)N3CCOCC3)cc2)cc1C do in these assays?
D2 PAM: -2; CtBP-E1A blk: -11; D2 agonist: -4.9; gsp ag: -31%[inhibitor]; Six1-Eya2 blk: -2; gsp antag: -11%

Results for Cc1cccc(OCC(=O)NNC(=O)CCN2CCN(c3ccccc3)CC2)c1C ?
D2 PAM: -8; CtBP-E1A blk: 2; D2 agonist: 6.9; gsp ag: 1%; Six1-Eya2 blk: 7; gsp antag: 6%

What do the screens show for `COc1cc(C(=O)NNC(=O)CN2C(=O)NC(C)(c3ccc(C)cc3)C2=O)cc(OC)c1OC` (configuration not stated)?
D2 PAM: 5; CtBP-E1A blk: 17; D2 agonist: -3.8; gsp ag: inconclusive; Six1-Eya2 blk: -3; gsp antag: 9%

How did O=C(Cn1cnc2cc([N+](=O)[O-])ccc2c1=O)Nc1ccccc1-c1ccccc1 do in these assays?
D2 PAM: -5; D2 agonist: 2.6; gsp ag: -5%; Six1-Eya2 blk: -12; gsp antag: -5%

Results for COc1cc(OC)cc(C(=O)Nc2c(C)nn(-c3ccccc3)c2C)c1 ?
D2 PAM: -1; CtBP-E1A blk: 2; D2 agonist: -2.0; gsp ag: -19%; Six1-Eya2 blk: 14; gsp antag: 14%

Results for CCn1cnnc1SCC(=O)c1c(N)n(C2CC2)c(=O)[nH]c1=O ?
D2 PAM: -3; D2 agonist: -3.9; gsp ag: -41%[inhibitor]; Six1-Eya2 blk: 9; gsp antag: 12%

Results for O=C(Nc1ccc(Cl)cc1C(=O)NCc1cccnc1)c1ccc(Cl)cc1Cl ?
D2 PAM: -10; CtBP-E1A blk: 1; D2 agonist: -1.5; gsp ag: -1%; Six1-Eya2 blk: 7; gsp antag: inconclusive

The closing 4 records of the section above lead into the next:
How did O=C(Cn1cnc2cc([N+](=O)[O-])ccc2c1=O)Nc1ccccc1-c1ccccc1 do in these assays?
D2 PAM: -5; D2 agonist: 2.6; gsp ag: -5%; Six1-Eya2 blk: -12; gsp antag: -5%

Results for COc1cc(OC)cc(C(=O)Nc2c(C)nn(-c3ccccc3)c2C)c1 ?
D2 PAM: -1; CtBP-E1A blk: 2; D2 agonist: -2.0; gsp ag: -19%; Six1-Eya2 blk: 14; gsp antag: 14%

Results for CCn1cnnc1SCC(=O)c1c(N)n(C2CC2)c(=O)[nH]c1=O ?
D2 PAM: -3; D2 agonist: -3.9; gsp ag: -41%[inhibitor]; Six1-Eya2 blk: 9; gsp antag: 12%

Results for O=C(Nc1ccc(Cl)cc1C(=O)NCc1cccnc1)c1ccc(Cl)cc1Cl ?
D2 PAM: -10; CtBP-E1A blk: 1; D2 agonist: -1.5; gsp ag: -1%; Six1-Eya2 blk: 7; gsp antag: inconclusive

Results for Cc1nn(C)c(Cl)c1CN1CCN(C2CCCC2)C(CCO)C1 (configuration not stated) ?
D2 PAM: -25; CtBP-E1A blk: 3; D2 agonist: -2.4; gsp ag: inconclusive; Six1-Eya2 blk: 0; gsp antag: 4%

How did CCOc1nc2cnccc2n(CC(=O)Nc2cccc(C)c2C)c1=O do in these assays?
D2 PAM: -6; D2 agonist: 4.9; gsp ag: 25%; Six1-Eya2 blk: 4; gsp antag: -20%

What do the screens show for `O=C(N/N=C/c1ccc(F)c(F)c1)c1cccc(S(=O)(=O)N2CCCCC2)c1`?
D2 PAM: -14; CtBP-E1A blk: -6; D2 agonist: -1.8; gsp ag: 24%; Six1-Eya2 blk: 6; gsp antag: -16%

Results for COc1ccc(C2C3=C(CCCC3=O)Nc3nc(SCc4ccccc4)nn32)cc1OC (configuration not stated) ?
D2 PAM: 4; CtBP-E1A blk: 3; D2 agonist: -0.8; gsp ag: 0%; Six1-Eya2 blk: 0; gsp antag: -15%

What do the screens show for `Cc1cnc(C(=O)OCC(=O)c2cc(C)n(CCc3ccc(F)cc3)c2C)cn1`?
D2 PAM: -12; CtBP-E1A blk: -7; D2 agonist: -2.8; gsp ag: -105%[inhibitor]; Six1-Eya2 blk: -5

How did CCOC(=O)c1ccc(NC(=O)CCc2ccc(CC)o2)cc1 do in these assays?
D2 PAM: 1; CtBP-E1A blk: -8; D2 agonist: -0.8; gsp ag: inconclusive; Six1-Eya2 blk: -4; gsp antag: -16%

How did Cc1cccc(-c2ncc(CN3CCCC(CO)(Cc4cccc(Cl)c4)C3)cn2)c1 (configuration not stated) do in these assays?
D2 PAM: -17; D2 agonist: -1.3; gsp ag: -33%[inhibitor]; Six1-Eya2 blk: -2; gsp antag: -12%

Results for Cc1ccc(NC(=O)c2ncn(CCCN3CCN(Cc4cccc5ccccc45)CC3)n2)cc1C ?
CtBP-E1A blk: inconclusive; D2 agonist: 2.1; Six1-Eya2 blk: -12; gsp antag: 2%

How did CCN(CC)S(=O)(=O)c1csc(C(=O)NC2CCCCC2)c1 do in these assays?
D2 PAM: -17; CtBP-E1A blk: 1; D2 agonist: -4.1; gsp ag: 12%; Six1-Eya2 blk: 5; gsp antag: 5%

How did Cc1c(C(=O)Nc2ccc3c(c2)OCO3)sc2nc(-c3ccccc3)cn12 do in these assays?
D2 PAM: -14; CtBP-E1A blk: 5; D2 agonist: -0.9; gsp ag: 39%; Six1-Eya2 blk: -2; gsp antag: 9%

Results for Cn1nnnc1SCC(=O)Nc1ccc(Cl)cn1 ?
D2 PAM: 6; CtBP-E1A blk: 1; D2 agonist: 0.3; gsp ag: inconclusive; Six1-Eya2 blk: 4; gsp antag: 7%

What do the screens show for `CCOC(=O)N1CCC(N2CCCC(C(=O)c3cc(C)c(OC)c(C)c3)C2)CC1` (configuration not stated)?
D2 PAM: -6; CtBP-E1A blk: -7; D2 agonist: -2.2; gsp ag: -20%; Six1-Eya2 blk: 1; gsp antag: 4%

Results for Nc1c(N(CCCO)C(=O)C2CCCCC2)c(=O)[nH]c(=O)n1Cc1ccccc1 ?
D2 PAM: -5; CtBP-E1A blk: -1; D2 agonist: -4.3; gsp ag: -4%; Six1-Eya2 blk: inconclusive; gsp antag: 1%

Results for CCCc1cc(-c2n[nH]c(=S)n2C(C)c2ccccc2)cs1 (configuration not stated) ?
D2 PAM: -19; CtBP-E1A blk: -5; D2 agonist: 0.1; gsp ag: -3%; Six1-Eya2 blk: -1; gsp antag: -4%

Results for Cc1cc(Cl)ccc1OCC(=O)NCCCn1ccnc1 ?
D2 PAM: -23; CtBP-E1A blk: 8; D2 agonist: 0.3; gsp ag: -16%; Six1-Eya2 blk: 2; gsp antag: 12%

What do the screens show for `Cc1c(N=Cc2nc3ccccc3[nH]2)c(=O)n(-c2ccccc2)n1C`?
D2 PAM: -18; CtBP-E1A blk: 6; D2 agonist: -3.3; gsp ag: 0%; Six1-Eya2 blk: 5; gsp antag: 2%

Results for Cc1ccc(NC(=O)COC(=O)c2cccc3c2C(=O)c2ccccc2C3=O)c(C)c1 ?
D2 PAM: 56*; CtBP-E1A blk: 5; D2 agonist: 10; gsp ag: -30%; Six1-Eya2 blk: -3; gsp antag: -21%

What do the screens show for `Cc1ccc(OCC(O)CNS(=O)(=O)c2ccccc2C(=O)N2CCCCC2)cc1` (configuration not stated)?
D2 PAM: -6; CtBP-E1A blk: -8; D2 agonist: -0.8; gsp ag: 23%; Six1-Eya2 blk: 6; gsp antag: -1%
